Compound activity: PubChem, Southern Research Institute
Mtb H37Rv: Mycobacterium tuberculosis H37Rv growth inhibition, putative kinase inhibitor library, confirmatory dose response (AID 2842) | M. tuberculosis H37Rv growth inhibition; higher % means a stronger effect; some inactives read as strong as hits | inhibition, % at 10 µg/mL, or IC90 in µg/mL where a hit was titrated | hit rate 5.2% among 24,000;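 active = confirmed in a dose series; about a fifth of its hits are not listed in these tables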;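 also: bacteria incubated one week before Alamar blue readout; 0% = bacteria only wells and 100% = bacteria with high antibiotic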
Numbers without * were called inactive. These rows are one share of the data; the hit share may differ from the screen's.

SMILES | Mtb H37Rv
COCCn1c(C)cc(O)c(C(c2cccnc2)N2CCCCC2)c1=O (stereo unspecified) | -8%
O=C(Nc1nnc(-c2ccccc2Cl)s1)c1ccccc1Br | 4%
CS(=O)(=O)c1cccc(-c2nnc(NC(=O)CCS(=O)(=O)c3ccc(Cl)cc3)o2)c1 | -8%
O=C(Nc1ccc2c(c1)OCO2)c1oc2ccccc2c1NC(=O)C1CC(=O)N(c2ccccc2)C1 (stereo unspecified) | -9%
CCOC(=O)c1csc(NC(=O)c2ccc(-c3ccccc3)cc2)n1 | 4%
COCCCNc1nc2c(c(=O)[nH]c(=O)n2C)n1CC(O)COc1ccccc1 (stereo unspecified) | -7%
O=C(COc1ccc(Cl)cc1Cl)Nc1n[nH]c(=S)s1 | -6%
CC1CCCN(Cc2c(O)ccc3c(=O)c(-c4nc5ccccc5s4)c(N)oc23)C1 (stereo unspecified) | 2.9µg/mL*
CS(=O)(=O)c1ccc(CC(=O)N(Cc2ccccn2)c2nc3c(Cl)cccc3s2)cc1 | 2%
COc1cc(OC)cc(C(=O)Nc2nnc(-c3ccc(C)cc3)s2)c1 | 5%
O=C(Nc1nc(-c2ccc3c(c2)OCO3)cs1)c1cc(-c2cccs2)nc2ccccc12 | 1%
CCC(C)Sc1nc2c(c(=O)[nH]c(=O)n2C)n1Cc1cccc(Br)c1 (stereo unspecified) | 22%
O=C1c2cccc3cccc(c23)C(=O)N1CCCc1nc2sc3c(c2c(=O)[nH]1)CCCC3 | 4%
CCOC(=O)c1nn(-c2ccc(C)cc2)c(=O)c2c(NC(=O)c3ccc(S(=O)(=O)N4CCCCC4)cc3)scc12 | -15%
Cc1ccc(-c2nnc(NC(=O)c3ccc(S(=O)(=O)N(C)c4ccccc4)cc3)o2)c(C)c1 | 6%

Two compounds drawn at random from those above:
SMILES | Mtb H37Rv
Cc1ccc(-c2nnc(NC(=O)c3ccc(S(=O)(=O)N(C)c4ccccc4)cc3)o2)c(C)c1 | 6%
O=C(Nc1nc(-c2ccc3c(c2)OCO3)cs1)c1cc(-c2cccs2)nc2ccccc12 | 1%

Structural class: the compounds so far with bromine
SMILES | Mtb H37Rv
O=C(Nc1nnc(-c2ccccc2Cl)s1)c1ccccc1Br | 4%
CCC(C)Sc1nc2c(c(=O)[nH]c(=O)n2C)n1Cc1cccc(Br)c1 (stereo unspecified) | 22%

By substructure, the compounds so far with a halogen.
SMILES | Mtb H37Rv
O=C(Nc1nnc(-c2ccccc2Cl)s1)c1ccccc1Br | 4%
CS(=O)(=O)c1cccc(-c2nnc(NC(=O)CCS(=O)(=O)c3ccc(Cl)cc3)o2)c1 | -8%
O=C(COc1ccc(Cl)cc1Cl)Nc1n[nH]c(=S)s1 | -6%
CS(=O)(=O)c1ccc(CC(=O)N(Cc2ccccn2)c2nc3c(Cl)cccc3s2)cc1 | 2%
CCC(C)Sc1nc2c(c(=O)[nH]c(=O)n2C)n1Cc1cccc(Br)c1 (stereo unspecified) | 22%

The listing continues.
SMILES | Mtb H37Rv
CCOC(=O)N1CCN(C(=O)CSc2nc(N)c(NC(=O)c3ccco3)c(=O)[nH]2)CC1 | -4%
O=c1[nH]cc(CSc2n[nH]c(=O)[nH]c2=O)c(=O)[nH]1 | -3%
O=C(Nc1nnc(-c2ccco2)o1)c1cccc(Oc2ccccc2)c1 | 3.3µg/mL*
O=C(Nc1c(C(=O)Nc2ccc(OC(F)(F)F)cc2)oc2ccccc12)c1cccs1 | 1%
COc1ccc(Cl)cc1NC(=O)CSc1ccc2nnc(-c3ccc(F)cc3)n2n1 | 2%
COc1ccc(CNC(=O)NC2CC(=O)N(c3ccc(C)c(C)c3)C2)cc1 (stereo unspecified) | 6%
Cc1csc(N2C(=N)SC(c3ccccc3)C2=O)n1 (stereo unspecified) | 4%
COc1ccc(C(c2sc3ncnn3c2O)N2CCN(C(=O)c3ccco3)CC2)cc1 (stereo unspecified) | -1%
COc1ccc(C(=O)Nc2nnc(-c3ccccn3)o2)cc1OC | -6%
CCOC(=O)c1nn(-c2ccccc2)c(=O)c2c(NC(C)=O)scc12 | 1%
O=C(Nc1c(C(=O)Nc2ccccc2)oc2ccccc12)c1ccc(S(=O)(=O)N2CCCCC2)cc1 | 4%
CCOC(=O)Cn1cnc2c(cnn2-c2cccc(Cl)c2)c1=O | 6%
O=c1[nH]ncc(N/N=C\c2cccc(O)c2)c1Br | -10%
NC(=O)c1ccc(NC(=O)c2cc3ccccc3o2)cc1 | -4%
COc1ccc2c(c1)c1nnc(-c3ccc(F)cc3)c-1cn2Cc1ccc(C)cc1 | 3%
CC(=O)C(C)Sc1nc2c(c(=O)n(C)c(=O)n2C)n1Cc1ccc(F)cc1 (stereo unspecified) | -1%
COC(=O)C1CCN(C(c2cccc(OC)c2)c2sc3nc(C)nn3c2O)CC1 (stereo unspecified) | 4%
O=c1[nH]c2ccccc2c(O)c1Br | -2%
C=CCc1c(C)c(C#N)c2nc3ccccc3n2c1NC(C)C | 14%
Cc1ccc(C)c(-n2c(C)c(C)n3c4c(=O)n(CC(N)=O)c(=O)n(C)c4nc23)c1 | -7%
Cn1nc(-c2cccc(NC(=O)c3ccco3)c2)ccc1=O | 7%
Cn1c(=O)c2c(nc(SCCCO)n2Cc2ccccc2Cl)n(C)c1=O | 8%
O=C(Cc1n[nH]c(=O)[nH]c1=O)N/N=C/c1c(F)cccc1Cl | -2%
O=C1NCCc2c(OCc3ccccc3Cl)cccc21 | -11%
Cc1ccc2cc(CCNC(=O)c3ccc(C(C)(C)C)cc3)c(=O)[nH]c2c1C | -6%
COc1ccc(C(=O)CSc2nnc3ccc(-c4cccnc4)nn23)cc1 | -4%
COc1ccc2nc(-c3ccc(C)c(NS(=O)(=O)c4cc(F)ccc4OC)c3)cn2n1 | 6%
CCOc1ccccc1NC(=O)c1oc2ccccc2c1NC(=O)C1CC1 | -2%
Cc1cc(NC(=O)c2ccc(Cl)c([N+](=O)[O-])c2)nc2c1c(=O)oc1ccccc12 | -3%
CC(=O)c1sc(NC(=O)c2ccccc2C)nc1C | 2%

Brought forward from above: 3 entries, then new ones.
SMILES | Mtb H37Rv
CCOc1ccccc1NC(=O)c1oc2ccccc2c1NC(=O)C1CC1 | -2%
Cc1cc(NC(=O)c2ccc(Cl)c([N+](=O)[O-])c2)nc2c1c(=O)oc1ccccc12 | -3%
CC(=O)c1sc(NC(=O)c2ccccc2C)nc1C | 2%
Cc1ccc(Cn2c(SCC(=O)c3ccccc3)nc3c2c(=O)[nH]c(=O)n3C)cc1 | 6%
O=C(Nc1nnc(-c2ccccc2Cl)s1)c1c(F)cccc1F | 11%
CSc1nc2ccc(NC(=O)c3cccc(Br)c3)cc2s1 | 49%
CN1/C(=C/C2CC(=O)N(c3ccc([N+](=O)[O-])cc3)C2=O)C(C)(C)c2ccccc21 (stereo unspecified) | 84%
CC(C)CCn1c(SCC(=O)OCc2ccccc2)nc2c1c(=O)[nH]c(=O)n2C | -9%
O=c1[nH]cnc2c(Cl)cc(Cl)cc12 | 12%
Cc1cccc(Nc2sc(C(=O)c3ccccc3)c(N)c2S(=O)(=O)c2ccc(Cl)cc2)c1 | 5%
COc1ccc2cc(CCNC(=O)c3ccc(C)c(C)c3)c(=O)[nH]c2c1 | -3%
O=C(CSc1ccc2nnc(-c3ccccc3)n2n1)Nc1ccccc1F | -5%
Cc1cccc(Cc2cnc(NC(=O)c3cc4ccccc4o3)s2)c1 | 1%
CCOC(=O)c1nn(-c2ccc(F)cc2)c(=O)c2c(NC(=O)Cc3ccc(F)cc3)scc12 | 3%
CCOC(=O)c1nn(-c2ccc(F)cc2)c(=O)c2c(NC(=O)CCc3ccccc3)scc12 | -1%
Cc1ccc(-n2ncc3c(NNC(=O)Cc4cccc5ccccc45)ncnc32)cc1 | 5%
Cc1ccc(NC(=O)CSC2CC(=O)N(c3ccc(F)cc3)C2=O)cc1 (stereo unspecified) | -7%
CC(=O)N1CCc2c(sc(NC(=O)c3ccc(C#N)cc3)c2C(N)=O)C1 | 76%
c1ccc2c(CCNc3ncnc4nc[nH]c34)c[nH]c2c1 | 12%
CCCc1cc(=O)[nH]c2nnc(SCC(=O)Nc3ccc([N+](=O)[O-])cc3)n12 | -4%
CCOc1ccc2c(c1)c(=O)c(S(=O)(=O)c1ccc(OC)cc1)cn2Cc1cccc(C)c1 | 1%
CNC(=O)c1ccsc1NC(=O)c1ccc(Cl)s1 | 31%
Cc1c(Cc2ccc(Cl)cc2)c(NCCCN(C)C)n2c(nc3ccccc32)c1C#N | 2.2µg/mL*
O=C(Nc1nnc(-c2cc(Cl)ccc2Cl)o1)c1ccc([N+](=O)[O-])s1 | 6%
O=C(CSc1nnc2[nH]c(=O)ccn12)Nc1cccc(Cl)c1 | -2%
COc1cccc(OCC(=O)Nc2c(C(=O)Nc3cccc(Cl)c3)oc3ccccc23)c1 | -3%
Cc1oc2c(c1C(=O)N1CCC(C)CC1)C(=O)c1ccccc1C2=O | 43%
CCC(=O)Nc1c(C(=O)Nc2ccc(OC)c(OC)c2)oc2ccccc12 | -2%
COc1ccc(N2CCN(c3nc4c(c(=O)[nH]c(=O)n4C)n3CCSc3nnnn3-c3ccccc3)CC2)cc1 | 37%
O=C(NCCc1csc2nc(-c3ccc(F)cc3)nn12)C(=O)Nc1ccccc1[N+](=O)[O-] | 2%
CCS(=O)(=O)c1cccc(C(=O)Nc2nc3c(F)cc(F)cc3s2)c1 | -7%
Cc1ccc(-c2c(C)sc3ncn(Cc4ccc(C(=O)O)cc4)c(=O)c23)cc1C | -16%
O=C(O)c1cccnc1SC1CC(=O)N(c2ccc(F)c(Cl)c2)C1=O (stereo unspecified) | -2%
CCOc1cccc2cc(-c3nc4ccc([N+](=O)[O-])cc4[nH]3)c(=O)oc12 | -11%
Cc1ccc(C)c(NC(=O)CSc2nc(N)c(NC(=O)c3ccc(C(F)(F)F)cc3)c(=O)[nH]2)c1 | -6%
NC(=O)c1c(NC(=O)c2ccc(C(=O)c3ccccc3)cc2)sc2c1CCCCC2 | 76%
Cc1ccc(-c2csc3ncnc(Nc4ccc(O)cc4)c23)cc1 | 1%
Cc1ccc(S(=O)(=O)CCC(=O)Nc2ccc([N+](=O)[O-])cc2)cc1 | -11%
O=C(CSc1nnc(Cc2ccc(Cl)cc2)c(=O)[nH]1)Nc1ccccc1F | -7%
COc1ccc(OC)c(NCCCn2c(C)c(C)n3c4c(=O)[nH]c(=O)n(C)c4nc23)c1 | 84%
COc1ccccc1C(=O)Nc1nnc(-c2ccccc2Cl)o1 | 3.2µg/mL*
COc1ccc(S(=O)(=O)Nc2ccc(C(=O)Nc3nnc(C4=COCCO4)o3)cc2)cc1 | -42%
Cc1cc(NC(=O)CSc2ccnc(=O)[nH]2)no1 | -13%
COc1ccc2nc(NNC(=O)c3ccc(S(=O)(=O)N4CC(C)OC(C)C4)cc3)sc2c1 (stereo unspecified) | -2%
CCc1ccc2oc(-c3ccc(OC)cc3)c/c(=N\O)c2c1 | 18%
COc1cccc2cc(C(=O)Nc3cccc(-c4cn5cccc(C)c5n4)c3)c(=O)oc12 | 15%
COc1ccc(N2CC(NC(=O)Nc3cc(F)ccc3F)CC2=O)cc1OC (stereo unspecified) | 4%
Cc1ccc(C)c(-c2nnc(NC(=O)c3ccc4ccccc4c3)o2)c1 | 19µg/mL*
O=C(Nc1nc2c(ccc3ccccc32)s1)c1ccc(Oc2ccccc2)cc1 | 96%
COc1cccc(-c2ccc3nnc(SCc4c(F)cccc4Cl)n3n2)c1 | 6%
CN1CCN(C(CNC(=O)c2ccc(F)cc2)c2ccc(F)cc2)CC1 (stereo unspecified) | 0%
Cc1ccc2nc(NC(=O)CSc3nc(-c4ccc(F)cc4)nc4c3c(=O)n(C)c(=O)n4C)sc2c1 | 12%
COc1ccccc1Cn1cc(C(=O)c2ccc(F)cc2)c(=O)c2cc(OC)c(OC)cc21 | 69%
O=C(Nc1ccc2ncsc2c1)c1cc2c(ccc3ccccc32)oc1=O | -3%
Cc1c(C(=O)NCc2nnc(SCC(=O)N3CCCC3)o2)cccc1[N+](=O)[O-] | -17%
CCOC(=O)Cn1c(=O)c2c(nc3n(-c4ccc(C)cc4C)c(C)c(C)n23)n(C)c1=O | -6%
COc1cc(-c2nnc(NC(=O)CCS(=O)(=O)c3ccccc3)o2)cc(OC)c1OC | -5%
CCCn1c(SCCC(=O)O)nc2c1c(=O)[nH]c(=O)n2C | 12%
COc1ccc2cc(CCNC(=O)Cc3cccc(C)c3)c(=O)[nH]c2c1 | -3%
CCOc1ccc(-c2nc(C(N)=O)c3[nH]c(=O)n(-c4ccc(F)cc4)c3n2)cc1 | -9%
Cc1cccc(Cn2c(SCCN3CCOCC3)nc3c2c(=O)n(C)c(=O)n3C)c1 | 11%
CC(C)(C)c1cc(O)c2oc(=O)c(S(=O)(=O)c3ccc(F)cc3)cc2c1 | -6%
COc1ccc(OC)c2[nH]c(=O)c(CCNC(=O)C3CCCCC3)cc12 | 11%

The results go on:
SMILES | Mtb H37Rv
Cc1ccc2cc(CCNC(=O)C34CC5CC(CC(C5)C3)C4)c(=O)[nH]c2c1 | 11%
CC(=O)NC(=O)c1cc2cc(Br)ccc2oc1=Nc1cccc(C(F)(F)F)c1 | 7%
COC(=O)c1sc2ncn(CC(=O)NC3CCCCC3)c(=O)c2c1C | -1%
Cc1ccc(C(=O)Oc2ccc(/C=C(\C#N)C(=O)Nc3cccc(C)c3)cc2)cc1 | 11%
CCC(=O)Oc1cc(C)[nH]c(=O)c1[N+](=O)[O-] | 7%
COc1ccc(-c2nnc(Nc3nc4ccc(OC)cc4s3)o2)cc1 | 0%
Cc1ccc(NC(=O)CSc2nnc(-c3cccnc3)o2)cc1Cl | -7%
Cc1ccc(C)c(CN2CCN(c3nc4c(c(=O)[nH]c(=O)n4C)n3CCC(C)C)CC2)c1 | 51%
Cc1ccc(C(=O)NCCc2cc3cc(C)c(C)cc3[nH]c2=O)cc1 | -3%
COc1ccc(OC)c(NC(=O)c2oc3ccccc3c2NC(C)=O)c1 | -3%
